From PubChem BioAssay
AF4-AF9 inh: inhibitors of AF4 peptide binding to AF9, primary screen, biochemical, AlphaScreen, biotin-AF4 peptide, FLAG-AF9, single point; inhibition, % at 10 µM; actives 0.47% (n = 350,000);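 active = every replicate reaching a set inhibition limit, whatever the replicate mean, cut at about 25% in these data; inconclusive = mean inhibition reaches that limit but some replicates miss it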;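 also: 0% = plate neutral control median and 100% = total signal loss; the record names both 10 and 1 µM as test concentration; the first replicate is given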
Target sequence (P42568 whole entry, looked up): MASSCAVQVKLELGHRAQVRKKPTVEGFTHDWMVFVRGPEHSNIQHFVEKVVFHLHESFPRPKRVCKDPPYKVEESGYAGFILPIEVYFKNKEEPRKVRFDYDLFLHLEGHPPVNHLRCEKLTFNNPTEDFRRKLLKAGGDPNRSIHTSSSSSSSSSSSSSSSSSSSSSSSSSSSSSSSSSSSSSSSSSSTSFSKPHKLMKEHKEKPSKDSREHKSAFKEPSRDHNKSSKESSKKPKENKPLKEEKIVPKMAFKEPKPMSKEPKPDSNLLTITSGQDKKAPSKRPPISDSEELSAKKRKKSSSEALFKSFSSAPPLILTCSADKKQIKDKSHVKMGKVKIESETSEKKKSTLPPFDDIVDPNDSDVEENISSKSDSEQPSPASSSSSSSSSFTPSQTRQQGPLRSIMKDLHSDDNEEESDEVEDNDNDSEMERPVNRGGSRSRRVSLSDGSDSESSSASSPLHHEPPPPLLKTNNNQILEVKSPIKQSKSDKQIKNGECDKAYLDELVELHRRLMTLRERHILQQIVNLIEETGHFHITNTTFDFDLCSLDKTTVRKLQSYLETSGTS
Vif A3G: inhibitors of Vif binding to APOBEC3G peptide, primary screen, biochemical, TR-FRET, GST-Vif 1-94, biotin-A3G peptide, dose response retest (AID 1117319). Virion infectivity factor (Human immunodeficiency virus type 1 group M subtype B (isolate …. TR-FRET GST-Vif / biotin-A3G peptide binding; higher % means a stronger effect; test concentration not given here; strong numbers were not always called active. inhibition, %, or IC50 in µM where a hit was titrated. actives 0.57% (n = 260,000);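 active = above the screen mean plus three standard deviations and confirmed in dose response; inconclusive = results disagree or hit not tested in dose response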;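 also: Vif residues 1-94 fused to GST binding biotinylated APOBEC3G peptide 110-148; 0% = full assay without inhibitor and 100% = GST in place of GST-Vif; retest series ran down from 100 µM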
T cruzi inh: inhibitors of intracellular T. cruzi growth, primary screen, luminescence, NIH3T3 host cells; inhibition, % (test concentration not listed); T. cruzi beta-gal in NIH3T3, 90 h; actives 1.4% (n = 300,000);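 active = mean inhibition across valid replicates above about 55%, limit read from the data; inconclusive = mean below that limit but half or more replicates reach it; inactive = mean below it, under half of replicates reach it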;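 also: signal also drops with host cell toxicity which is not excluded here; 0% = plate median of DMSO wells and 100% = zero luminescence signal; higher percent means less beta-gal luminescence so fewer parasites; stock transfer was 50 nL into about 50 µL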
Beta apoptosis: inhibitors of cytokine-induced beta cell apoptosis, primary screen, luminescence; INS-1E cytokine-induced death, ATP luminescence, 48 h; percent of positive-control rescue, neutral wells zero; actives 0.8% (n = 300,000); protection from apoptosis, % (no concentration beside the values);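 active = all replicates at 75% or more, or half of them and the mean; inconclusive = half reach 75% but not the mean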;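 also: 0% = cytokine-treated negative control wells and 100% = positive control rescue; higher means more ATP so stronger rescue from cytokine killing; wells of about 40 µL received 100 nL stock; the first replicate is given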
RanGTP-Imp inh: inhibitors of RanGTP-importin-beta interaction, primary screen, biochemical, FRET, CFP-Ran, YFP-importin-beta, homogeneous. Ran GTPase (GTP-bound) - importin-beta complex. cell-free CFP-Ran/YFP-importin-beta FRET ratio. inhibition, % (test concentration not listed). actives 1.1% (n = 300,000);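 active = most replicates above 15%; inconclusive = exactly half above 15%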;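 also: 0% = DMSO wells and 100% = Ran loaded with GDP instead of GTP; wells of about 40 µL received 100 nL stock; the first replicate is given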
LANA-H2B inh: blockers of LANA interaction with H2A/H2B – biochemical, FP readout, HTS, primary screen; cell-free LANA-H2A/H2B peptide, fluorescence polarization; inhibition, % (test concentration not listed); actives 0.6% (n = 320,000); in the data active = inhibition mostly above about 10%, no sharp cut-off; inactive = mostly below about 6.7%;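 also: stock transfer was 7.5 nL into about 10 µL; 0% = median of vehicle wells and 100% = median of positive control wells; one replicate is shown; the record names a cut of 25% in any replicate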
Calb FLC: C. albicans growth inhibition with fluconazole, primary screen, CaCi-2 strain, Alamar Blue fluorescence. C. albicans CaCi-2 (fluconazole-resistant clinical isolate) + fluconazole, 48 h. growth inhibition, % (no concentration beside the values). actives 0.57% (n = 300,000). AID 1979, 2009;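 active = most replicates above 75%; inconclusive = exactly half above 75%; inactive = most below 75%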;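 also: all wells also contain fluconazole at 8 µg/ml as a sub-toxic cotreatment; 0% = median of DMSO wells and 100% = median of geldanamycin control wells; wells of about 8 µL received 7.5 nL stock; the first replicate is given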
Bfl-1 A1 inh: caspase 3/7 activation in MEF A1-2A-BIM cells, primary screen, A1 inhibitor project, cell-based, luminescence, HTS. actives 0.066% (n = 330,000). Caspase-Glo 3/7 luminescence, 3 h; percent of clofoctol response, vehicle zero. AID 2462, 2010. caspase activation, % (concentration not given with the values);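 active = over half of replicate activation scores above 10%, or exactly half above 10 with the replicate mean above 10; inconclusive = replicate mean below 10 yet half the replicates above 10; inactive = over half of replicates below 10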;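 also: wells of about 30 µL received 50 nL stock; many hits fall short of the cut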
Starred values were filed as active, the others as inactive; ? = inconclusive; . = not tested or not shown; & = joins results of further samples.

SMILES	AF4-AF9 inh	Vif A3G	T cruzi inh	Beta apoptosis	RanGTP-Imp inh	LANA-H2B inh	Calb FLC	Bfl-1 A1 inh
O=C(c1ccc(S(=O)(=O)N2CCOCC2)cc1)N1CCc2ccccc2C1	.	-1.9%	11.2	1.3	-2.5	0.4	-6.0	0.6
CN(C)CCNC(=O)C(=O)c1c(-c2ccccc2)cc2ccccn12	-0.4	71.1%	1.2	0.3	-0.2	-0.8	2.1	0.1
c1ccc(Cn2nnnc2C(c2cccs2)N2CCc3ccccc3C2)cc1 (stereo not given)	.	-3.7%	41.9	1.6	-3.7	-2.2	0.7	-0.5
CSCCC(NC(=O)COc1ccccc1)C(=O)N1CCN(C(C)=O)CC1 (stereo not given)	0.3	.	-5.7	-4.1	1.3	0.7	-2.5	-0.5
COC(=O)c1ccc(S(=O)(=O)N2C3CCC2CC(NC(=O)NC2CCCCC2)C3)cc1 (stereo not given)	.	-2.0%	-2.1	1.0	-2.6	-1.8	2.3	0.0
CCCCOC(=O)Nc1nnc(SCCOc2ccc(C)cc2)s1	.	.	-1.9	-5.1	1.1	1.3	2.3	-0.1
Cc1c(CN2CCN(CC(C)C)C(CCO)C2)[nH]c2ccc(Cl)cc12 (stereo not given)	6.1	.	26.5	-2.6	2.0	-4.6	-2.6	0.3
C#CCNC(=O)C1=C[C@@H](c2ccc3c(c2)OCO3)C[C@@H](OCCCCO)O1	-2.5&-2.8	.	11.3	-7.3	-0.4	-1.9	8.4	0.1
CN(Cc1ccc(F)cc1)Cc1nc(-c2cnccn2)no1	-0.4	2.8%	13.3	-14.1	-1.7	-2.2	-7.2	-1.3
NS(=O)(=O)c1ccc(SCc2ccccc2)nc1	-2.1	.	-18.9	.	0.9	-2.1	19.5	0.3
[O-]/C(=C(\C(=S)Nc1cccc2ccccc12)[n+]1ccccc1)c1ccc2c(c1)OCCO2	.	1.0%	36.5	-1.2	0.4	3.2	-31.9	0.7
COc1ccc(C(=O)N/C(=C\c2cccc([N+](=O)[O-])c2)C(=O)Nc2cccc(C(=O)O)c2)cc1	-2.2	7.2%	-15.1	-3.3	0.5	-1.2	-2.2	0.1
CCOC(=O)C(C)N1C(=O)S/C(=C/c2cc(C)n(-c3ccncc3)c2C)C1=O (stereo not given)	24.1	6.6%	23.5	-0.1	1.8	-2.6	?	0.3
Cc1ccccc1OCC(=O)OC(C)CN1CCN(C)CC1 (stereo not given)	.	0.1%	-3.7	0.1	?	-6.8	-25.8	0.6
CCC(C)[C@H]1CN=C(N)N1CCc1cccc2ccccc12 (stereo not given in full)	-2.8	.	24.3	.	0.9	-3.7	-3.8	1.9
Cc1ccc(N(CC(=O)N2CCCC2)S(C)(=O)=O)c(C)c1	-1.0	.	-8.3	-3.9	-4.1	-3.3	-12.4	1.0
Fc1ccc(COc2ccc3ccccc3c2CNc2nn[nH]n2)cc1	-4.2	9.6%	-38.7	-1.6	-1.5	6.5	14.8	0.7
N#C/C(=C\c1ccc(F)cc1)C(=O)Nc1ccccn1	1.7	2.9%	-4.4	-1.4	38.8*	3.4	-1.2	-0.7
CCCCCOC(=O)CSc1n[nH]c(=O)[nH]c1=O	.	-1.0%	-5.2	0.0	-5.2	-4.0	14.0	1.3
CCN1CCN(C(=O)CN(c2ccc(F)cc2)S(=O)(=O)c2ccc(OC)c(OC)c2)CC1	-0.6	.	-8.9	-3.3	1.9	-0.4	9.8	1.6
N#Cc1ccccc1NC(=O)CSc1nnc(-c2ccccc2)n1-c1ccccc1	.	-7.3%	-4.1	8.3	6.9	-1.3	3.9	0.9
O=C(Nc1ccc(N2CCOCC2)cc1)c1cccc(S(=O)(=O)N2CCC(Cc3ccccc3)CC2)c1	.	-3.4%	-13.8	7.8	4.3	-1.9	21.9	-0.2
Cc1ccc2c(c1)COc1c3ccc(C(=O)O)cc3nn1-2	.	.	19.4	11.0	0.7	-1.8	13.6	-7.5
O=C(Nc1nnc(C2=COCCO2)o1)c1ccc(F)cc1	2.4	3.6%	-16.8	-10.6	3.7	4.3	2.9	-0.9
CN(C)CCNC(=O)C(=O)Nc1cc2c3c(c1)CCC(=O)N3CCC2	-2.0	.	-10.9	-1.9	-5.2	-4.5	-7.0	-0.5
O=C(COC(=O)CCS(=O)(=O)c1ccccc1)NC(=O)c1ccc(OC(F)F)cc1	-1.8	.	-5.3	-3.8	-1.7	2.4	1.7	0.1
COc1ccc(CNC(=O)COC(=O)c2ccc(Br)o2)cc1	-0.9	-2.5%	.	2.1	.	2.4	.	-0.1
Clc1ccc2nc(N3CCCCC3)sc2c1	1.2	.	-7.4	8.1	0.5	6.5	-10.2	-6.1
CCN(Cc1ccccc1)C(=O)Cn1cc(S(=O)(=O)NC)c(S(=O)(=O)NC)c1	-1.6	1.1%	-0.9	-2.5	-4.0	0.8	-5.2	0.4
CC(CCc1ccccc1)NC(=O)Cc1ccc([N+](=O)[O-])cc1 (stereo not given)	-5.9	-11.6%	-5.1	2.7	3.1	4.3	1.9	0.8
Cc1n[nH]c(C)c1CN(C)C(=O)C1CCC(=O)N(CCc2cccc(F)c2)C1 (stereo not given)	0.8	.	-10.1	-5.6	4.7	-3.1	21.3	0.6
COc1ccccc1C1C([N+](=O)[O-])=CC([N+](=O)[O-])=CN1C (stereo not given)	-0.5	2.0%	-10.7	2.9	?	-0.6	4.9	-0.3
COc1ccc(-c2[nH]ncc2CN2CCCC(C(=O)c3ccc(OC)cc3OC)C2)cc1 (stereo not given)	5.6	-4.2%	46.1	5.5	-4.5	2.9	?	0.0
CC(C)CC(=O)Nc1ccnn1C1CCN(C(=O)c2ccc(F)cc2Cl)CC1	0.3	.	-15.2	1.1	-1.1	4.5	0.0	-0.2
Cc1noc(C)c1C(=O)NCC(=O)Nc1ccccc1Br	-1.3	.	.	-8.0	.	1.6	.	0.8
COc1cccc(NC(=O)CN(C)C(=O)CN2C(=O)NC(C)(c3ccc4ccccc4c3)C2=O)c1 (stereo not given)	5.0	9.3%	2.0	-0.3	3.0	-2.6	0.4	-0.5
CCOc1ccccc1C1NC(=O)CCC1[N+](=O)[O-] (stereo not given)	0.3	.	-18.5	.	0.4	0.8	23.0	0.1
CC(O)[C@H]1CNC(=O)C(=O)N1CCc1cccc2ccccc12 (stereo not given in full)	1.0	6.5%	-17.7	-11.5	0.7	1.0	-7.2	0.4
O=C(NC1CCCC1)C(c1ccccn1)N(C(=O)c1csnn1)c1ccccc1 (stereo not given)	-1.9	-5.0%	10.4	-3.4	1.8	2.7	-9.1	-0.3
CC(CCc1ccccc1)NC(=O)c1nnc(Cc2ccc(F)cc2)o1 (stereo not given)	-7.5	-1.3%	12.5	-5.6	3.3	1.0	10.0	0.5
COc1ccc(CCNC(=O)c2c[nH]c3ccc(F)cc3c2=O)cc1OC	-2.5	.	-5.5	3.7	-2.4	-0.9	13.4	0.8
CCN1CCN(C(=O)/C=C/c2cccc(Cl)c2)CC1	1.1	.	4.8	-3.7	2.7	-5.1	2.0	0.2
COc1cc(OC)cc(C(=O)Nn2cnnc2)c1	-4.9	-9.7%	-15.4	1.7	2.8	-1.1	-3.7	0.4
CC(C)(C)NC(=O)CSc1nsc(SCC(=O)NC(C)(C)C)c1C#N	.	-7.8%	6.9	5.3	0.8	1.2	10.3	-0.3
COC(=O)c1ccc(NC(=O)COC(=O)CCC2CCCC2)cc1	-17.3	-5.2%	.	0.2	.	4.4	.	-0.6
COCC(CN1CCN(C2=NS(=O)(=O)c3ccccc32)CC1)OC(=O)c1ccccc1 (stereo not given)	3.3	.	6.8	-7.1	0.9	-10.2	-2.4	0.7
O=C(CSc1nccn1Cc1ccco1)Nc1ccccc1C(F)(F)F	0.5	2.3%	-19.0	0.5	-0.8	5.9	0.5	0.4
CCOC(=O)c1cnn(-c2ccc(C(F)(F)F)cn2)c1N	.	4.8%	-6.3	13.2	4.1	-0.1	1.3	0.1
CC(C)COc1ccc(/C(O)=C2/C(=O)C(=O)N(CCN(C)C)C2c2ccncc2)cc1 (stereo not given)	.	?	-3.5	-2.4	3.1	2.6	6.3	0.1
CCOc1ccc(NC(=O)CCC(=O)Nc2cc(OC)c(NC(=O)c3ccco3)cc2OC)cc1	-0.9	.	9.0	-1.2	2.3	-2.0	-9.2	0.3
O=C(CN1CCOCC1)Nc1ccc2c(c1)OCO2	1.3	?	-31.9	-1.8	2.1	1.8	-15.1	-0.7
c1ccc(COc2cccc(CNCc3cccnc3)c2)cc1	3.3	2.4%	61.5*	.	-0.9	-2.7	-9.4	0.0
CC1(C)Cc2c(c(N3CCOCC3)nc3sc(C(=O)N4CCCCC4)c(N)c23)CO1	-1.3	-5.9%	2.2	.	3.4	.	3.3	.
COCCn1c(C(F)(F)F)ccc(NC(=O)c2ccccc2)c1=O	-2.0	.	10.8	2.9	2.9	-1.1	7.1	-2.9
CNc1nc(-c2ccc(Cl)cc2)cs1	.	1.0%	-25.6	7.0	-0.4	-6.4	-2.4	-0.3
CC(C(=O)N1CCOCC1)c1ccc([N+](=O)[O-])cc1 (stereo not given)	-0.9	-3.9%	-10.3	1.7	4.8	0.1	-25.9	0.3
O=C(Nc1cc(C(F)(F)F)ccc1N1CCOCC1)C1=COCCO1	7.6	6.7%	-0.5	-0.6	2.3	9.0	-5.4	0.3
O=C1C2CSCN2C(=O)CN1CCCN1CCN(C(c2ccccc2)c2ccccc2)CC1 (stereo not given)	6.9	2.6%	-16.4	-3.8	-1.3	2.3	-15.4	0.2
Cc1ccc(C(=O)/C=C/c2ccccc2)o1	.	-1.4%	-19.6	1.7	2.7	-2.4	-6.5	-0.7
Cc1ccc(Cl)cc1N=C(N)N=C(N)N	2.1	-10.7%	3.6	.	-0.5	1.3	18.8	0.3

Next part:
SMILES	AF4-AF9 inh	Vif A3G	T cruzi inh	Beta apoptosis	RanGTP-Imp inh	LANA-H2B inh	Calb FLC	Bfl-1 A1 inh
Cn1nnnc1SCc1nnc(-c2ccc(F)cc2)o1	.	2.5%	-3.9	-3.7	0.4	-0.8	-1.2	0.6
C=CCSc1nsc(N)n1	.	5.0%	-9.9	-6.5	0.5	2.3	-22.9	0.0
O=C(NCC1CCCO1)c1onc(CSc2ccc(Cl)cc2)c1C(=O)O (stereo not given)	.	9.5%	-5.0	-2.7	0.5	-1.5	6.2	1.0
CCC(C)c1ccc(OCC(=O)Nc2cccc(C(=O)Nc3ccc(C(=O)O)cc3)c2)cc1 (stereo not given)	-3.4	.	-12.1	-0.3	6.6	-4.3	-25.5	0.9
Clc1ccc(OCCCc2nc(-c3cccnc3)no2)c(Cl)c1	.	21.6%	16.2	-3.9	2.0	-5.7	31.9	-0.3
CC1CCN(S(=O)(=O)c2ccc(C(=O)Nc3sccc3C(N)=O)cc2)CC1	-3.1	-9.1%	11.9	2.0	3.6	3.4	-2.5	-0.6
CC(C)C(=O)NC(=S)Nc1ccc(S(=O)(=O)N2CCCC2)cc1	1.1	-1.5%	1.4	-0.4	1.2	1.9	5.0	0.1
CC(Nc1nc(C(F)(F)F)nc2ccccc12)c1cccs1 (stereo not given)	-11.3	.	6.2	-36.6	-1.7	-1.3	0.5	0.2
CCOC(=O)CN1C(=O)/C(=C2\SC(=S)N(NC(=O)c3cccnc3)C2=O)c2ccccc21	-17.6	8.4%	-10.3	.	-7.9	4.9	-0.2	0.2

Compounds were not picked by outcome (roughly 4.3% active in at least one column).
